Screens (PubChem BioAssay)
MARV entry inh = qHTS for inhibitors of binding or entry into cells for Marburg Virus; Marburg virus pseudotyped entry inhibition, cell reporter; control for the full effect not named in the record; about a third of the inactives were read at about 46 µM; Potency, µM (highest dose often 37.8 µM), for inactives: at the top dose activity change, negative = inhibition, most hits filed as inhibitors; hit rate 1.8% among 300,000; AID 540276, 2011; active = well fitted inhibition curve with a large enough effect; inconclusive = small, poorly fitted or top-dose-only effect, or effect the other way; inactive = flat fitted curve, though single readings scatter; tested in HEK293 cells; about a fifth of its hits are not listed in these tables; also: % is scaled to controls: 0 for no effect and ±100 for the full control effect; luciferase read-out
NS1 inh = qHTS Assay for Inhibitors of Influenza NS1 Protein Function; hit rate 0.4% among 270,000; Potency, µM (highest dose often 46.1 µM), for the others: top-dose activity, positive = more growth; S. cerevisiae slowed by influenza A NS1, growth recovery by OD600; also: actives are rising curves; nearly all actives have a fitted effect of over 50% in size
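Compounds were scored for reversing the slow growth caused by influenza A NS1 in S. cerevisiae, measured by optical density at 600 nm. Assay medium contained 2% galactose at pH 6.0; NS1-free yeast of the same strain were the positive control.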
SARS PLpro yeast = qHTS of Yeast-based Assay for SARS-CoV PLP | hit rate 0.19% among 330,000 | S. cerevisiae expressing SARS-CoV PLpro, growth rescue; control for the full effect not named in the record | Potency, µM (doses to about 32.9 µM), for inactives: at the top dose activity, positive = growth rescue; also: 0% is about no effect; nearly all actives have a fitted effect of over 55% in size; growth read by luminescence after 48 h
RE007 growth inh = qHTS Assay for Inhibitors of the HIV-1 protein Vpr | S. pombe RE007 Vpr strain, BacTiter-Glo ATP luminescence, 24 h; control for the full effect not named in the record | Potency, µM (highest dose often 92.2 µM), for inactives: at the highest dose activity change, negative = less growth | hit rate 0.21% among 360,000; active = well fitted falling curve with a large enough effect; inconclusive = small, poorly fitted or top-dose-only effect; inactive = no such curve, though single readings can be large or run the other way;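 also: % is scaled to controls: 0 for no effect and ±100 for the full control effect; nearly all actives have a fitted effect of over 50% in size; the assay follows cell death caused by Vpr and the record does not say whether a fall means rescue or toxicity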
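Fission yeast strain RE007, carrying one chromosomally integrated HIV-1 vpr copy, was seeded at OD 0.01 in PMG+AL medium with 23 nL pinned compound. After 24 h at 30 °C and 99% humidity, viability was read by BacTiter-Glo luminescence.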
Cruzain Triton = qHTS Assay for Promiscuous and Specific Inhibitors of Cruzain (with detergent); AID 1478, 2009; Cruzipain (Trypanosoma cruzi), P25779; purified cruzain, Z-FR-AMC fluorescence, 0.01% Triton; Potency, µM, inactives show max response, negative = inhibition, most hits filed as inhibitors; hit rate 0.43% among 200,000; active = well fitted curve in the direction sought with a large enough effect; inconclusive = small, poorly fitted or top-dose-only effect, or another doubt; inactive = no such curve, though single readings can be large; an effect the other way counts as inactive or inconclusive;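 also: plate controls were neutral wells for no effect and buffer without enzyme for full effect; nearly all actives have a fitted effect of over 40% in size; top concentration of the series not given in the record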
Target sequence (P25779 123-467 limits assumed): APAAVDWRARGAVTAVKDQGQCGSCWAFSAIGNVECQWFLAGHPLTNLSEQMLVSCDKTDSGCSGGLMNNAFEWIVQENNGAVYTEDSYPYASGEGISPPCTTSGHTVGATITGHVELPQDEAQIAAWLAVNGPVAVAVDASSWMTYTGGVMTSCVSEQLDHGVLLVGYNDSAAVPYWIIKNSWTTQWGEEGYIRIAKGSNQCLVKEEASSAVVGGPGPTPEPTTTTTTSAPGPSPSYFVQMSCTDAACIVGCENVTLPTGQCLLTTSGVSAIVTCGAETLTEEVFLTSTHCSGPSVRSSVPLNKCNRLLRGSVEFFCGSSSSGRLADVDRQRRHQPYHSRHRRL
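Detergent-containing run (0.01% Triton X-100) in acetate buffer pH 5.5 with 5 mM DTT: enzyme at 1.5 nM final, 15 min compound preincubation at room temperature, then 2 uM Z-FR-AMC substrate. Activity taken as 60 s fluorescence increase at 360/450 nm.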
Lassa entry inh = qHTS for Inhibitors of binding or entry into cells for Lassa Virus; Lassa virus pseudotype entry inhibition, cell reporter; control for the full effect not named in the record; Potency, µM (doses to about 37.9 µM), for inactives: at the highest dose activity change, negative = inhibition, actives largely listed as inhibitors; hit rate 1.2% among 300,000; AID 540256, 2011; active means well fitted inhibition curve with a large enough effect; inconclusive means small, poorly fitted or top-dose-only effect, or effect the other way; inactive means flat fitted curve, though single readings scatter; tested in HEK293 cells; also: % is scaled to controls: 0 for no effect and ±100 for the full control effect; nearly all actives have a fitted effect of over 50% in size; luciferase read-out
Cruzain inh noDet = qHTS Assay for Promiscuous and Specific Inhibitors of Cruzain (without detergent). Cruzipain (Trypanosoma cruzi), P25779. purified cruzain, Z-FR-AMC fluorescence, no detergent. Potency, µM, inactives show max response, negative = inhibition, most hits filed as inhibitors. hit rate 2.3% among 200,000; active = well fitted curve in the direction sought with a large enough effect; inconclusive = small, poorly fitted or top-dose-only effect, or another doubt; inactive = no such curve, though single readings can be large; an effect the other way counts as inactive or inconclusive;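 also: plate controls were enzyme without inhibitor for no effect and buffer without enzyme for full effect; nearly all actives have a fitted effect of over 40% in size; top concentration of the series not given in the record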
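Detergent-free condition (0.00005% Triton X-100) in acetate buffer pH 5.5 with DTT. 1.5 nM enzyme and compound were pre-mixed 15 min, then 2 uM Z-FR-AMC substrate added; reaction progress from fluorescence change between first and third reads (60 s).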
2A StopGo = High Throughput Screening for Foot and Mouth Disease Virus Antivirals | human cells with a luciferase reporter of 2A StopGo recoding; control for the full effect not named in the record | Potency, µM (highest dose often 57.9 µM), inactives show at the highest dose signal change, negative = less light | hit rate 1.2% among 410,000 | AID 1159524, 2015; active = well fitted falling curve with a large enough effect; inconclusive = small, poorly fitted or top-dose-only effect; inactive = no such curve, though single readings can be large or run the other way; tested in HEK293T cells; also: % is scaled to controls: 0 for no effect and ±100 for the full control effect; nearly all actives have a fitted effect of over 45% in size; luciferase light after 4 h
* marks the source's active call; other numbers are inactive results; ? = inconclusive; . = not tested or not shown; & = joins results of further samples; [ ] = remark or other dose. Unless noted, calls follow the shape of the dose curve; as a rule, active means well fitted rising curve with a large enough effect; inconclusive means small, poorly fitted or top-dose-only effect; inactive means no such curve, though single readings can be large or run the other way. Potency is read from the fitted curve at half-maximal effect. Not a hit list (roughly 4.7% active in at least one column).

nr	compound	MARV entry inh	NS1 inh	SARS PLpro yeast	RE007 growth inh	Cruzain Triton	Lassa entry inh	Cruzain inh noDet	2A StopGo
1	COc1ccc(N(C(=O)c2ccc3c(c2)OCO3)C2C=CS(=O)(=O)C2)c(OC)c1 (stereo unspecified)	.	1%	1%	-5%	.	.	.	-3%
2	O=S(=O)(c1ccc(Cl)nc1)N(Cc1ccccc1)Cc1ccccc1	-20%	-31%	1%	40%	-4.0%	0%	10%	-17%
3	COc1cccc(CNC(=O)[C@H](C)NC(=O)C2CCN(S(=O)(=O)c3ccccc3)CC2)c1	.	-4%	-16%	1%	.	.	.	-3%
4	Cc1ccc(Cl)cc1N1CCN(C(=O)C2CCN(S(C)(=O)=O)CC2)CC1	?	.	12%	6%	.	-28%[46.1 µM]	.	?
5	O=C(O)COc1ccccc1/C=N/NC(=O)c1cccc(S(=O)(=O)Nc2cccc(Cl)c2)c1	-1%[46.1 µM]	.	-1%	3%	.	6%[46.1 µM]	.	5%
6	O=C(/C=C/c1ccco1)Nc1cccc(-c2nc3ccccc3[nH]2)c1	9%	-13%	-11%	3%	-3.1%	5%	?	6%
7	O=C(CCN1C(=O)/C(=C/c2ccccc2Cl)SC1=S)NNC(=O)c1cccnc1	?	1%	-1%	-8%	.	2%	.	-9%
8	COc1ccc(N2CCN(C(=O)Cn3cnc4sc(C)c(S(=O)(=O)N5CCCCC5)c4c3=O)CC2)cc1	-27%[46.1 µM]	.	.	.	-1.7%	?	?	-20%
9	OC(COc1ccc2c(c1)OCO2)CN1CCCC1 (stereo unspecified)	-8%[46.1 µM]	.	1%	6%	.	10%[46.1 µM]	.	36%
10	Cc1nn(C)c(C)c1/C=C1/SC(=S)NC1=O	-1%	-51%	-7%	-10%	2.2%	11%	3%	8%
11	CC(NC(=S)NCCCN1CCOCC1)C1CC2CCC1C2 (stereo unspecified)	3%[46.1 µM]	.	-1%	1%	.	15%	.	-8%
12	CC(Sc1nc2cc(Cl)ccc2s1)C(=O)Nc1cccc(S(=O)(=O)N2CCOCC2)c1 (stereo unspecified)	?	?	-12%	-1%	-2.4%	?	?	-23%
13	CCOCCCNC(=O)C1CCN(S(=O)(=O)CC)CC1	-2%	2%	-5%	0%	6.0%	9%	-3%	.
14	Cc1ccc(Cl)cc1NC(=O)Cn1c(=O)oc2cc(S(=O)(=O)N3CCCC3)ccc21	-5%[46.1 µM]	.	.	.	-5.9%	?	23%	0%
15	CCN(CC)C(=O)c1cnn(-c2ccccc2)c1NC(=O)c1cccc(F)c1	?	-5%	-5%	-2%	-2.4%	0%	7%	-15%
16	COc1ccc(OC)c(-c2csc(N(C)C(=O)Cc3ccccc3)n2)c1	?	.	-3%	-13%	.	5%	.	14%
17	Cc1cccc(CCNc2nc3ccc(C)cc3n3cnnc23)c1	.	4%	-3%	0%	.	.	.	19%
18	COc1ccc(-c2cc(C(=O)Nc3c(C)n(C)n(-c4ccccc4)c3=O)c3ccccc3n2)c(OC)c1	?	0%	24%	4%	.	?	.	-4%
19	COc1ccc(NC(=O)Cc2ccccc2)cc1	?	0%	-8%	9%	-3.3%	?	-4%	33%[activator]
20	CC1(c2ccccc2)NC(=O)N(CC(=O)NCc2ccc3c(c2)OCO3)C1=O (stereo unspecified)	10%[46.1 µM]	-5%	-12%	-8%	.	5%[46.1 µM]	.	29%
21	Cc1ccc(C)c(-n2c(-c3cccnc3)n[nH]c2=S)c1	0%[46.1 µM]	6%	?	9%	.	-20%[46.1 µM]	.	-14%
22	CCc1cc2c(SCC(=O)Nc3ccc(Cl)cn3)ncnc2s1	?	10%	-8%	-6%	-4.0%	19%	-24%	-26%
23	CC(=O)N1CCN(CC(=O)Nc2ccc([N+](=O)[O-])cc2Br)CC1	-9%[46.1 µM]	.	5%	10%	.	25%	.	-17%
24	COc1ccc(CCN2CC(C(=O)NCCc3ccccc3C(F)(F)F)CCC2=O)cc1 (stereo unspecified)	.	-9%	-4%	4%	.	.	.	45%[activator]
25	Cc1[nH]n(-c2ccccc2)c(=O)c1/C=N/NC(=O)c1cccc(F)c1	.	-62%	8%	15%	.	.	.	-6%
26	O=C(CCCN1C(=O)/C(=C\c2ccccc2)SC1=S)Nc1cccc(C(=O)O)c1	6%[46.1 µM]	23%	0%	3%	.	0%	.	-2%
27	COc1ccc(C2SCC(=O)N2c2c(C)n(C)n(-c3ccccc3)c2=O)cc1OC (stereo unspecified)	?	9%	6%	-3%	3.1%	?	-8%	-22%
28	COc1ccc(C)cc1NC(=O)c1ccc2c(O)c(S(=O)(=O)c3ccccc3)c(=O)[nH]c2c1	.	-6%	-5%	9%	.	.	.	0%
29	c1cc(-c2nnn(CCOCCn3nnc(-c4ccncc4)n3)n2)ccn1	.	7%	-1%	1%	.	.	.	-16%
30	CN(C)CCCNC(=O)c1ccc(Cl)c(S(=O)(=O)N2CCCCCC2)c1	?	.	0%	-18%	.	-1%	.	-9%
31	Cc1ccc(C)c(N2CCN(c3ncnc4c3cnn4-c3ccccc3)CC2)c1	-4%	7%	3%	-14%	-1.8%	.	?	?
32	CCN(CC)C(=O)CC(c1ccc2c(c1)OCO2)c1c(O)cc(OC)cc1OC (stereo unspecified)	.	-2%	1%	-3%	.	.	.	-1%
33	CCc1ccccc1NC(=O)[C@@H]1CCC(=O)N1C1OC(=O)c2c1ccc(OC)c2OC (stereo partly specified)	.	6%	0%	-13%	.	.	.	0%
34	Cc1cc(=O)oc(C)c1C(=O)NCCc1ccccc1	6%	9%	5%	0%	-3.8%	4%	-13%	-1%
35	S=c1[nH]nc2n1CCCN2	-10%	10%	1%	5%	.	3%	.	24%
36	Cn1c(=O)c2c(nc(N3CCOCC3)n2CC(=O)C23CC4CC(CC(C4)C2)C3)n(C)c1=O	3%	-7%	-1%	-1%	0.2%	?	?	-18%
37	CCCCN(CCCC)CCNC(=O)c1cn(CC)c2ccc(S(=O)(=O)N3CCc4ccccc4C3)cc2c1=O	-3%[46.1 µM]	2%	-8%	-10%	-2.5%	20%[46.1 µM]	-5%	-16%&0%
38	COc1ccc(CC(=O)NNc2ncnc3c2cnn3-c2ccccc2)cc1	24%	-5%	7%	9%	2.3%	5.2µM*	?	-9%
39	CN(C)C(=S)SSC(=S)N(C)C	.	9%	-27%	3.2µM*	-5.2%&16%	.	-10%&23%	0%&-20%
40	CC(C)(C)NC(=O)C(c1ccc(Cl)cc1)N(Cc1ccco1)C(=O)CCl (stereo unspecified)	.	-2%	-4%	-5%	.	.	.	?
41	COc1cccc(C(=O)Nc2ccc(N3CCN(Cc4ccccc4)CC3)cc2)c1	?	8%	11%	-16%	4.3%	2%	-8%	?
42	CCOc1ccccc1NC(=O)Cc1csc(COc2cccc(C)c2)n1	-5%[46.1 µM]	.	.	.	-9.1%	5%[46.1 µM]	-1%	?
43	COC(=O)COc1ccc(-c2ccc(F)cc2)cc1C=O	?	.	-25%	-18%	.	-17%	.	6%
44	CC1CN(CCCCSc2ccccc2)CC(C)O1 (stereo unspecified)	.	-10%	-3%	-2%	.	.	.	2%
45	CN1C(=O)N(C)C2(c3ccccc3)N(C)C(=O)NC12c1ccccc1 (stereo unspecified)	13%	-2%	-4%	18%	4.0%	?	-3%	38%[activator]
46	CC(=O)Nc1ccc(-c2csc(NCCc3ccccc3)n2)cc1	?	19%	2%	15%	.	?	.	-12%
47	Cc1ccc([N+](=O)[O-])cc1N1C(=O)CS/C1=N\NC(=O)c1cccnc1	.	-2%	-1%	26%	.	.	.	-5%
48	COCC(=O)Nc1nc2n(n1)C(c1ccc(OC)cc1)CC(c1ccc(OC)cc1)N2 (stereo unspecified)	-9%	-6%	-5%	-1%	-0.5%	0%	20%	5%
49	COc1ccc(C(=O)O)cc1S(=O)(=O)NCc1ccccn1	4%	4%	0%	2%	.	15%	.	-3%
50	O=C(NCC(=O)N1CCN(c2ncccn2)CC1)c1ccc(F)cc1	26%	.	-3%	19%	.	9%	.	19%
51	CCC(=O)N(c1ccc(F)cc1)C1C=CS(=O)(=O)C1 (stereo unspecified)	-20%	-11%	-2%	6%	-1.6%	2%	-6%	.
52	O=C1C(=O)N(CCCO)C(c2ccc(Br)cc2)/C1=C(\O)c1ccc(Br)cc1 (stereo unspecified)	.	25%	2%	6%	.	.	.	-12%
53	COc1ccc(CCn2c(N)c(C(=O)NCc3ccco3)c3nc4ccccc4nc32)cc1OC	?	9%	1%	-8%	-18%	?	?	.
54	COc1c(Cl)cc(Cl)cc1CNc1ccc(S(N)(=O)=O)cc1	?	0%	1%	6%	.	-2%[46.1 µM]	.	?
55	Cc1ccc2c(c1)c(-c1ccccc1)nc1nnnn12	?	3%	-1%	17%	.	?	.	-29%
56	CC(OC(=O)c1ccc(C(C)(C)C)cc1)C(=O)NC1CCCCC1C (stereo unspecified)	-13%	8%	0%	7%	.	-26%	.	?
57	CC1CN(S(=O)(=O)c2ccc(Cl)c(C(F)(F)F)c2)CC(C)O1 (stereo unspecified)	-15%	-9%	5%	10%	2.7%	-21%	-1%	-21%
58	O=C(c1cccn2c(=O)c3cc4ccccc4cc3nc12)N1CCN(c2ccccc2)CC1	0%	4%	0%	.	4.0%	.	24%	.
59	Cc1c(NS(=O)(=O)c2cccs2)c(=O)n(-c2ccccc2)n1C	-2%	5%	9%	1%	2.6%	15%	4%	-16%
60	Cn1cc(-c2ccccc2C(N)=O)c(=O)c2ccccc21	-10%[46.1 µM]	.	-3%	-8%	.	-4%	.	1%
61	O=S(=O)(Nc1ccc(Cl)cc1)c1ccc2c(c1)CCO2	?	-5%	1%	-5%	.	-4%[46.1 µM]	.	24%
